# Screening data deposited in PubChem by Broad Institute.
# NOMO-1 viab – STK33 inhibitor candidate reducing NOMO-1 cell viability; actives 7.5% (n = 37,000); inhibition, % (test concentration not listed); NOMO-1 AML viability, CellTiter-Glo luminescence, 72 h;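 active means most replicates above 80%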;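 further: wells of about 30 µL received 25 nL stock; 0% = median of vehicle wells and 100% = reference inhibitor level; the first replicate is given; inactives centre near 10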
# Starred values were filed as active, the others as inactive.
compound	NOMO-1 viab
Cc1cc(SCC(N)=O)nc2ccccc12	15
Cc1noc(C)c1NC(=O)N(C)C[C@@H]1Oc2ccc(NC(=O)Cc3ccccc3)cc2CC(=O)N([C@H](C)CO)C[C@H]1C	25
COCc1cc(C)nc2sc(C(N)=O)c(N)c12	7
COc1cccc2cc(C(=O)C3C(=O)C(=O)N(CCCN4CCOCC4)C3c3cccnc3)oc12 (configuration not stated)	47
Cc1noc(C)c1NC(=O)Nc1ccc2c(c1)C(=O)N([C@H](C)CO)C[C@H](C)[C@@H](CN(C)Cc1ccc3c(c1)OCO3)O2	12
C[C@@H]1CN([C@H](C)CO)C(=O)Cc2cc(NS(=O)(=O)c3ccc(F)cc3)ccc2O[C@@H]1CN(C)C(=O)Nc1cccc2ccccc12	10
C[C@@H]1CN([C@@H](C)CO)C(=O)Cc2cc(NC(=O)CCCCCC(=O)Nc3ccccc3N)ccc2O[C@@H]1CN(C)S(C)(=O)=O	7
COc1ccc(S(=O)(=O)Nc2ccc3c(c2)C(=O)N([C@@H](C)CO)C[C@H](C)[C@H](CN(C)C(=O)Nc2ccccc2)O3)cc1	4
Cc1noc(C)c1NC(=O)N(C)C[C@H]1Oc2ccc(NC(=O)CCCCCC(=O)Nc3ccccc3N)cc2C(=O)N([C@@H](C)CO)C[C@@H]1C	39
C[C@H](CO)N1C[C@H](C)[C@@H](CN(C)C(=O)Nc2cccc3ccccc23)Oc2c(NC(=O)c3nc4ccccc4s3)cccc2C1=O	99*
CCCn1cnc2cc(NCc3ccccn3)ccc21	-9
COc1ccc(NC(=O)Nc2cccc3c2O[C@H](CN(C)Cc2ccc(C(=O)Nc4ccccc4N)cc2)[C@@H](C)CN([C@H](C)CO)C3=O)cc1	128*
C[C@H](CO)N1C[C@H](C)[C@H](CN(C)Cc2ccc(C(=O)O)cc2)Oc2ccc(NC(=O)Cc3ccccc3)cc2CC1=O	8
COC(=O)c1c(-c2c(Cl)cccc2Cl)noc1NC(=O)N(C)C	-3
C[C@H]1CN([C@@H](C)CO)C(=O)Cc2cc(NC(=O)Nc3ccc(F)cc3)ccc2O[C@@H]1CN(C)C(=O)Nc1ccccc1	9
Cc1noc(C)c1NC(=O)N(C)C[C@H]1Oc2c(NC(=O)c3ccncc3)cccc2C(=O)N([C@@H](C)CO)C[C@H]1C	18
C[C@H]1CN([C@@H](C)CO)C(=O)c2cc(NC(=O)Nc3ccccc3)ccc2O[C@@H]1CN(C)Cc1ccccc1	9
C[C@@H]1CN([C@H](C)CO)C(=O)Cc2cc(NC(=O)Cn3cnnn3)ccc2O[C@@H]1CN(C)Cc1ccccc1	5
C(=Nc1ccc2ccccc2c1)Nc1ccc2ccccc2c1	13
COC1OC(C)C(OCc2ccccc2)C(O)C1O (configuration not stated)	1

# Remaining list, next part:
compound	NOMO-1 viab
COc1ccc(CN(C)C[C@H]2Oc3ccc(NS(C)(=O)=O)cc3CC(=O)N([C@H](C)CO)C[C@H]2C)cc1	-6
C[C@@H]1CN([C@H](C)CO)C(=O)c2cc(NC(=O)Nc3ccc(F)cc3)ccc2O[C@H]1CN(C)C(=O)Nc1ccc(F)cc1	-15
Cc1cccc(C(=O)N(CC#N)CC#N)c1	-2
Cc1ccc(S(=O)(=O)Nc2ccc3c(c2)C(=O)N([C@H](C)CO)C[C@H](C)[C@H](CN(C)C(=O)NC2CCCCC2)OCCCC[C@@H](C)O3)cc1	46
CN(CC(=O)Nc1ccccc1Cl)S(=O)(=O)c1ccc(Cl)cc1	-9
O=C1c2cccc3cccc(c23)C(=O)N1OS(=O)(=O)c1cccc2cccnc12	23
CCOC(=O)c1c(-c2ccc(OC)cc2)csc1NC(=O)c1ccccc1[N+](=O)[O-]	16
CS(=O)(=O)NCCSCc1ccco1	15
COc1ccc(S(=O)(=O)Nc2cccc3c2O[C@@H](CN(C)Cc2ccc(C(F)(F)F)cc2)[C@H](C)CN([C@@H](C)CO)C3=O)cc1	12
C[C@@H]1CN([C@H](C)CO)C(=O)c2cc(NC(=O)Nc3ccc(F)cc3)ccc2O[C@H]1CN(C)S(=O)(=O)c1cccs1	1
CC(=O)Nc1ccc(Br)cc1-c1nc2ccccc2nc1OCc1cccc(Cl)c1	71
Cc1ccc(S(=O)(=O)N(C)C[C@@H]2Oc3ccc(NC(=O)NC(C)C)cc3C(=O)N([C@@H](C)CO)C[C@@H]2C)cc1	-6
CCn1c(=O)c(C(=O)NCCN2CCCCC2)c(O)c2ccccc21	8
C[C@H]1CN([C@@H](C)CO)C(=O)c2cccc(NC(=O)C3CC3)c2O[C@@H]1CN(C)S(=O)(=O)c1ccccc1	6
CSc1c(C#N)c(-c2ccccc2)nn1CC(=O)NN	8
CNC[C@@H]1Oc2ccc(NC(=O)CCC(F)(F)F)cc2C(=O)N([C@@H](C)CO)C[C@H]1C	11
COC(=O)c1c(NC(=O)CSc2nnc3ccccn23)sc(C)c1C	-1
C[C@H]1CN([C@@H](C)CO)C(=O)c2cc(NS(=O)(=O)c3cn(C)cn3)ccc2O[C@H]1CN(C)C(=O)Nc1ccc(C(F)(F)F)cc1	1
C[C@H](CO)N1C[C@H](C)[C@@H](CN(C)Cc2ccccc2)Oc2ccc(NC(=O)CCCCCC(=O)Nc3ccccc3N)cc2C1=O	-26
CNC[C@@H]1Oc2ccc(NC(=O)c3ccncc3)cc2CC(=O)N([C@@H](C)CO)C[C@@H]1C	-17

# Next entries.
compound	NOMO-1 viab
C[C@@H]1CN([C@H](C)CO)C(=O)Cc2cc(NS(C)(=O)=O)ccc2O[C@@H]1CN(C)Cc1ccccc1	-3
C[C@@H]1CN([C@H](C)CO)C(=O)c2cc(NS(=O)(=O)c3ccc(F)cc3)ccc2O[C@H]1CN(C)S(=O)(=O)c1cn(C)cn1	13
C[C@H](CO)N1C[C@H](C)[C@H](CN(C)Cc2ccc(C(=O)O)cc2)Oc2c(NC(=O)c3ccncc3)cccc2C1=O	-13
Cc1ccc(S(=O)(=O)N(C)C[C@@H]2Oc3c(NC(=O)Nc4ccc5c(c4)OCO5)cccc3C(=O)N([C@@H](C)CO)C[C@H]2C)cc1	19
C[C@@H]1CN([C@H](C)CO)C(=O)Cc2cc(NC(=O)Cc3cn(C)c4ccccc34)ccc2O[C@@H]1CN(C)S(=O)(=O)c1cn(C)cn1	51
C[C@H]1CN([C@@H](C)CO)C(=O)c2cccc(NS(=O)(=O)c3cn(C)cn3)c2O[C@@H]1CN(C)Cc1ccc(Cl)c(Cl)c1	34
CCOC(=O)c1c(NC(=O)C(C)n2nc([N+](=O)[O-])c(Br)c2C)sc(C)c1C (configuration not stated)	40
C[C@@H]1CN([C@@H](C)CO)C(=O)Cc2cc(N(C)C)ccc2O[C@@H]1CN(C)Cc1ccc(C(=O)O)cc1	-4
CC(=O)Nc1ccc(S(=O)(=O)NCc2ccc3[nH]c4c(c3c2)CCCC4)cc1	11
Cc1ccc(N(CC(=O)Nc2ccccc2Sc2ccccc2)S(C)(=O)=O)c(C)c1	0
Cc1ccccc1-c1nnc(SCC(=O)Nc2ccc(N3CCOCC3)cc2)o1	-4
C[C@H]1CN([C@@H](C)CO)C(=O)c2cccc(NC(=O)Nc3ccc4c(c3)OCO4)c2O[C@@H]1CN(C)C	-13
NC(=O)C1(N2CCCCC2)CCN(C(=O)CSc2nc3ccccc3s2)CC1	2
COc1ccc(Cn2c(-c3ccc(OC)c(O)c3)nc3ccccc32)cc1O	-2
N#CC(=S)Nc1ccc(F)cc1	49
C[C@@H]1CN([C@@H](C)CO)C(=O)c2cc(NC(=O)Nc3ccc(F)cc3)ccc2O[C@H]1CN(C)C(=O)Nc1ccc(F)cc1	-19
Cc1cc(C)c(OCC(=O)Nc2ccc(C)cc2[N+](=O)[O-])c(Cl)c1	42
CS(=O)(=O)N(CC(=O)Nc1ccc(Cl)cc1)c1cccc([N+](=O)[O-])c1	37
COc1cccc(NC(=O)CSc2nc(C)c(C)c(C)c2C#N)c1	8
CN1CCN(c2ccccc2NC(=O)COc2ccccc2[N+](=O)[O-])CC1	23

# Exported field by field: 2 of the compounds above
mol: Cc1cc(C)c(OCC(=O)Nc2ccc(C)cc2[N+](=O)[O-])c(Cl)c1
  NOMO-1 viab: 42

mol: CS(=O)(=O)N(CC(=O)Nc1ccc(Cl)cc1)c1cccc([N+](=O)[O-])c1
  NOMO-1 viab: 37

# Two of the compounds above, with each value named:
CCOC(=O)c1c(NC(=O)C(C)n2nc([N+](=O)[O-])c(Br)c2C)sc(C)c1C (configuration not stated)
  NOMO-1 viab: 40
C[C@@H]1CN([C@@H](C)CO)C(=O)Cc2cc(N(C)C)ccc2O[C@@H]1CN(C)Cc1ccc(C(=O)O)cc1
  NOMO-1 viab: -4

# The listing picks up; the two compounds before the break are reprinted first.
compound	NOMO-1 viab
COc1cccc(NC(=O)CSc2nc(C)c(C)c(C)c2C#N)c1	8
CN1CCN(c2ccccc2NC(=O)COc2ccccc2[N+](=O)[O-])CC1	23
C[C@H](CO)N1C[C@H](C)[C@H](CN(C)S(C)(=O)=O)Oc2ccc(NC(=O)CCN3CCOCC3)cc2C1=O	15
Cc1noc(C)c1NC(=O)Nc1ccc2c(c1)C(=O)N([C@@H](C)CO)C[C@@H](C)[C@@H](CN(C)C(=O)Nc1ccccc1)O2	10
CCOc1ccc2ccccc2c1C(=O)NCc1cccnc1	16
Cc1ccccc1OCC(=O)Nc1cccc(NC(=O)C(C)C)c1	30
CCc1nc(C)ccc1OCC(=O)N(CC)CC	11
CCCOc1ccc(C2C(C(=O)Nc3ccccc3OC)=C(C)Nc3ncnn32)cc1OC (configuration not stated)	20
O=C(Nc1ccccc1C(=O)NCc1ccco1)c1ccccc1Cl	-2
Cc1ccc(S(=O)(=O)Nc2cccc3c2O[C@@H](CN(C)C(=O)NC2CCCCC2)[C@@H](C)CN([C@H](C)CO)C3=O)cc1	100*
CC(C)NC(=O)N(C)C[C@H]1Oc2ccc(NS(=O)(=O)c3ccc(Cl)cc3)cc2CC(=O)N([C@@H](C)CO)C[C@H]1C	-16
C[C@H]1CN([C@@H](C)CO)C(=O)c2cc(NC(=O)Nc3ccccc3)ccc2O[C@@H]1CN(C)C(=O)NC1CCCCC1	-15
O=C(NCc1ccco1)c1ccc(NC(=O)C2COc3ccccc3O2)cc1 (configuration not stated)	-4
COc1ccc(Cl)cc1NC(=O)C(=O)NCc1cccnc1	-16
COc1ccc(NC(=O)Nc2ccc3c(c2)CC(=O)N([C@@H](C)CO)C[C@H](C)[C@H](CN(C)Cc2ccc(C(F)(F)F)cc2)O3)cc1	35
Cc1noc(C)c1NC(=O)N(C)C[C@H]1Oc2ccc(NS(=O)(=O)c3ccc(Cl)cc3)cc2C(=O)N([C@H](C)CO)C[C@H]1C	-1
O=C(CSc1nnnn1-c1ccccc1)Nc1ccc(F)c(Cl)c1	-4
O=C(Cc1ccccc1)c1ccc(Br)cc1	10
Cc1noc(C)c1S(=O)(=O)Nc1ccc2c(c1)CC(=O)N([C@@H](C)CO)C[C@H](C)[C@@H](CN(C)Cc1ccc(Cl)c(Cl)c1)O2	31
C[C@@H]1CN([C@H](C)CO)C(=O)Cc2cc(NS(=O)(=O)c3cccs3)ccc2O[C@@H]1CN(C)Cc1ccc(-c2ccccc2)cc1	34
C[C@@H]1CN([C@H](C)CO)C(=O)c2cccc(NS(=O)(=O)c3ccccc3)c2O[C@@H]1CN(C)Cc1ccc(Cl)c(Cl)c1	36
Cc1ccc(S(=O)(=O)N(C)C[C@H]2Oc3ccc(NS(=O)(=O)c4ccccc4)cc3C(=O)N([C@H](C)CO)C[C@H]2C)cc1	36

# (list continues)
compound	NOMO-1 viab
COc1ccc(C(=O)Nc2ccc(C(O)(C(F)(F)F)C(F)(F)F)cc2)cc1	110*
Cn1c(SCc2ccon2)nc2ccccc2c1=O	-5
C[C@@H]1CCCCO[C@H](CN(C)Cc2ccccc2)[C@@H](C)CN([C@H](C)CO)C(=O)c2cc(NC(=O)c3ccccc3)ccc2O1	27
Cc1onc(-c2c(Cl)cccc2Cl)c1C(=O)N(C)C	9
Cc1ccc(S(=O)(=O)N(C)C[C@H]2Oc3ccc(NC(=O)Nc4ccccc4)cc3C(=O)N([C@@H](C)CO)C[C@@H]2C)cc1	-15
C[C@@H]1CN([C@H](C)CO)C(=O)c2cccc(NC(=O)C3CCCCC3)c2O[C@@H]1CN(C)S(=O)(=O)c1ccccc1	12
C[C@H](CO)N1C[C@H](C)[C@H](CN(C)S(=O)(=O)c2ccc(Cl)cc2)Oc2ccc(NC(=O)Nc3ccc4c(c3)OCO4)cc2CC1=O	126*
N#Cc1cc2c(nc1SCC(=O)Nc1ccccc1C(F)(F)F)CCCCC2	16
Cc1noc(C)c1C(=O)NCc1ccccn1	-10
C[C@@H]1CN([C@@H](C)CO)C(=O)c2cc(NC(=O)CCN3CCOCC3)ccc2O[C@H]1CN(C)C(=O)Nc1cccc2ccccc12	9
COc1ccc(S(=O)(=O)N(C)C[C@H]2Oc3ccc(NS(=O)(=O)c4c(C)noc4C)cc3C(=O)N([C@H](C)CO)C[C@H]2C)cc1	26
Cc1ccc(S(=O)(=O)NC(=O)CSc2nc3ccccc3s2)cc1	-16
Cc1sc2nc(SCC(=O)c3ccc4c(c3)OCCO4)n(-c3ccccc3)c(=O)c2c1C	-8
COc1ccc(NC(=O)N(C)C[C@@H]2Oc3ccc(NC(=O)Nc4ccccc4)cc3C(=O)N([C@@H](C)CO)C[C@@H]2C)cc1	15
C[C@@H]1CN([C@@H](C)CO)C(=O)Cc2cc(NC(=O)Nc3ccc(C(F)(F)F)cc3)ccc2O[C@@H]1CN(C)Cc1ccc(Oc2ccccc2)cc1	128*

# Only part of the results is shown. The share of hits here may be higher or lower than overall.
